Sa growth 42C: S. aureus growth inhibition at 42 and 30 °C, primary screen, LtaS inhibitor project, RN4220, two temperatures; 170,000 compounds, 0.53% hits; OD600, 20 h, 42 °C; hits give low values; relative growth, % (test concentration not listed);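 active means growth at 42 °C up to 50% and 20 or more points under that at 30 °C, or under 10% at both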;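 further: 300 nL library stock went into each well; scaled to the means of positive and negative controls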
HCMV UL50-53 inh: inhibitors of HCMV UL50-UL53 interaction, biochemical, HTRF; normalized percent inhibition; inhibition, % (no concentration beside the values); 190,000 compounds, 0.15% hits;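 active means both replicates at 50% or more, plus weaker picks with an unusually low signal ratio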;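 further: stock transfer was 100 nL into about 20 µL; 0% = negative control wells and 100% = wells with untagged competitor protein; inactives centre near -12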
GIV-Gai inh: inhibitors of GIV peptide binding to Galpha-i3, primary screen, biochemical, fluorescence polarization, FITC-GIV GBA peptide, rat Galphai3; Guanine nucleotide-binding protein G(i) subunit alpha-3 (Rattus norvegicus), P08753; 90 min; hits give low values; scaled: aluminum fluoride 0%, vehicle 100%; percent of control (FP), % (concentration not given with the values); 210,000 compounds, 0.42% hits; AID 1224905, 2016;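 active means replicate mean at 85% of control or lower, very high polarization wells dropped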;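 further: wells of about 15 µL received 100 nL stock; the first replicate is given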
Target sequence (P08753 whole entry, looked up): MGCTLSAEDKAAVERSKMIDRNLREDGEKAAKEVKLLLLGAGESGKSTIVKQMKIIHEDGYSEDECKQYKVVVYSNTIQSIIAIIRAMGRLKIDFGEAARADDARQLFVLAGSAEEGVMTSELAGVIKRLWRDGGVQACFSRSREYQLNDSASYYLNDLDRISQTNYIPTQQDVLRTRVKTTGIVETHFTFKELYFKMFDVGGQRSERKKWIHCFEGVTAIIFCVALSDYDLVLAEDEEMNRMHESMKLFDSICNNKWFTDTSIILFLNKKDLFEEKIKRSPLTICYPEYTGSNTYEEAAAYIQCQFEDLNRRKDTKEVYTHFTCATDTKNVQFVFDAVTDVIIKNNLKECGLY
Sa growth 42C second temp: recorded beside Sa growth 42C, whose call it bears; relative growth, %; measured here: growth at 30 °C;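 optical density after 20 h as mean of two plates; 100% = untreated growth and lower means inhibition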
An asterisk follows results filed as active; . = not tested or not shown.

SMILES | Sa growth 42C | Sa growth 42C second temp | HCMV UL50-53 inh | GIV-Gai inh
COC(=O)c1ccc(OC)c(CN2CCN(Cc3ccccc3Cl)S2(=O)=O)c1 | 106 | 93 | -20 | 100
N#CCN(CC#N)S(=O)(=O)c1cc(Cl)ccc1Cl | 79 | 83 | -15 | .
Cn1c(=O)c(=O)n(C)c2cc(N3CCOCC3)c(NS(=O)(=O)c3ccc(Cl)cc3)cc21 | 88 | 75 | . | 95
O=C(N/N=C/c1cccs1)C1=COCCO1 | 90 | 94 | -85 | .
O=C(O)CCNC(=O)c1ccc(NC(=O)C(c2ccccc2)c2ccccc2)cc1 | 84 | 86 | . | 100
Nc1ncnc2nc(SCCC(=O)O)[nH]c12 | 104 | 95 | 2 | 108
O=S(=O)(c1ccc(Cl)cc1)N1CCCC1c1nc(-c2ccccc2)no1 (configuration not stated) | 96 | 85 | -3 | 98
COc1ccc(Cc2n[nH]c(=S)o2)cc1 | 87 | 85 | -15 | .
Cc1ccc(CNC(=O)C(=O)NCC(c2cccnc2)N2CCN(c3ccccc3F)CC2)cc1 (configuration not stated) | 127 | 91 | -21 | 102
COc1ccc2c(c1C)CCC(C1(O)C(=O)N(C)c3ccccc31)C2=O (configuration not stated) | 99 | 81 | -4 | .
COc1ccccc1N1CCN(C(=O)c2cnc(N3CCCCC3)c3ccccc23)CC1 | 83 | 85 | . | 104
Cc1nn(-c2ccccc2)cc1C1C=C(c2ccc(Cl)cc2)N=C2SCC(=O)N21 (configuration not stated) | 122 | 98 | 16 | 103
CCN(CC)CCCN=C1NC2CS(=O)(=O)CC2S1 (configuration not stated) | 103 | 85 | 11 | 102
CC(=O)NC1CC(C)(C)NC(C)(C)C1 | 88 | 87 | . | 99
Cc1c(NC(=O)c2cccc3c(Br)cccc23)cccc1-c1nc2cc(Cl)ccc2o1 | . | . | -1 | 102
CN(C)C=NC1=NN(c2ccccc2)CC1 | 78 | 69 | -99 | .
Cc1cc(C)n(CC(=O)Nc2cc(F)ccc2F)c(=O)c1C#N | 92 | 89 | . | 104
CN(C(=O)c1cccs1)c1ccccc1C(=O)O | 92 | 91 | -17 | .
O=C(CSc1nc2ccsc2c(=O)n1Cc1ccccc1F)NCc1ccccc1 | 94 | 98 | . | 103
Cc1cccc(C2N=C(N)Nc3nc4ccccc4n32)c1 (configuration not stated) | 92 | 101 | 14 | 108
CC1(C)CC(=O)C(C(c2ccc(Cl)cc2)C(C#N)C(N)=S)=C(O)C1 (configuration not stated) | 93 | 86 | -12 | .
CCc1[nH]nc2c1C(c1ccccc1)C(C#N)=C(N)O2 (configuration not stated) | 87 | 85 | -16 | 99
O=C(CC1CCN(C(=O)NC2CCCCC2)CC1)NC1CC1 | . | . | 4 | 105
O=C(COc1ccccc1)N(Cc1ccccc1O)c1ccccc1Cl | 89 | 61 | 8 | .
COc1ccc(CN2CCN(Cc3c[nH]c4ccccc34)CC2)cc1 | . | . | 9 | 96
CC1CCN(C(=O)c2c(NC(=O)c3ccccc3Cl)sc3c2CCC(C(C)(C)C)C3)CC1 (configuration not stated) | 96 | 97 | -20 | 101
COc1cccc2c(=O)cc(C)n(CC(=O)Nc3ccccc3)c12 | 100 | 103 | 14 | 104
Cc1ccn2cc(C(=O)NC3CCCCC3)nc2c1 | 101 | 92 | -13 | 104
O=C(Cn1ccn(-c2ccc(F)cc2)c(=O)c1=O)NCCc1ccccc1 | 77 | 90 | -14 | 92
COC(=O)c1cccc(NC(=O)C2COc3ccccc3O2)c1C (configuration not stated) | 116 | 85 | -12 | .

Structural class, the compounds so far with two or more sulfur atoms
SMILES | Sa growth 42C | Sa growth 42C second temp | HCMV UL50-53 inh | GIV-Gai inh
CCN(CC)CCCN=C1NC2CS(=O)(=O)CC2S1 (configuration not stated) | 103 | 85 | 11 | 102
O=C(CSc1nc2ccsc2c(=O)n1Cc1ccccc1F)NCc1ccccc1 | 94 | 98 | . | 103

Later entries:
SMILES | Sa growth 42C | Sa growth 42C second temp | HCMV UL50-53 inh | GIV-Gai inh
Cc1nnc(SC(=O)Cn2c3ccccc3c3ccccc32)s1 | 88 | 84 | -30 | 104
COc1cc(C2CC(=O)C3=C(C2)Nc2onc(C)c2C3c2ccc(O)c(OC)c2)ccc1O (configuration not stated) | . | . | -14 | 110
COc1cccc(CSc2nc3ccncc3n2Cc2ccc(C(=O)NCc3ccccn3)cc2)c1 | . | . | -28 | 102
CCN(CC)CCNC(=O)c1ccc(Cn2c(=O)c3cccn3c3cccnc32)cc1 | 101 | 99 | . | 109
CN(C)/C=C/C(=O)c1ccc2c(c1)CCC(C)(C)O2 | 103 | 86 | -25 | 103
CC1CC(C)CN(S(=O)(=O)c2ccc(C(=O)Nc3nccs3)cc2)C1 (configuration not stated) | 108 | 93 | 10 | .
Cc1ccccc1NS(=O)(=O)c1c(C(=O)N2CCCC2)c(C)n(C)c1C | . | . | -28 | 98
Cc1ccc(NC(=O)c2sc3nc[nH]c(=O)c3c2C)cc1Cl | 96 | 103 | . | 108
Cc1ccc(-c2noc(-c3cn(Cc4ccc(NS(=O)(=O)c5ccc(C)c(C)c5)cc4)cn3)n2)cc1 | . | . | -38 | 103
COc1cc(NC(C)C(=O)N2CCCC2)cc(OC)c1OC (configuration not stated) | 125 | 101 | -4 | .
CCC(C)C(C(=O)Nc1ccc(OC)c(OC)c1)N1Cc2ccccc2C1=O (configuration not stated) | 79 | 96 | 0 | 108
O=c1ccc(-c2ccc(Cl)c(S(=O)(=O)N(Cc3ccccc3)Cc3ccccc3)c2)n[nH]1 | . | . | -13 | 105
O=C(Nc1ccc(N2C(=O)C3C4C=CC(C4)C3C2=O)cc1)Nc1nncs1 (configuration not stated) | 93 | 94 | . | 100
CCc1ccccc1N1CC(C(=O)O)CC1=O (configuration not stated) | 78 | 91 | -14 | .
COc1cccc(Cn2c(C(=O)N3CCC(C(=O)NCCN4CCOCC4)CC3)cc3ccsc32)c1 | . | . | -23 | 106
O=C(CCS(=O)(=O)c1cccc2nsnc12)Nc1ccc(F)cc1 | 98 | 89 | -88 | 106
CCOc1ccccc1-c1nc(-c2ccc(-c3ccc(OC)cc3)nc2OC)no1 | 114 | 73 | -8 | 108
CCOc1ccc(C(=O)Nc2ccc(-n3nncc3-c3ccccc3)cc2)cc1OCC | 147 | 105 | . | 107
CC1=C(C(=O)Nc2ccccn2)C(c2cccnc2)n2nnnc2N1 (configuration not stated) | . | . | -5 | 102
N#Cc1cccc(C(c2nnnn2Cc2ccc(F)cc2)N2CCc3ccccc32)c1 (configuration not stated) | 96 | 75 | 4 | 104
Nc1ccc(-c2csnn2)cc1 | 102 | 85 | 0 | 96
Cn1c(=O)c2c(nc(NCc3ccc4c(c3)OCO4)n2Cc2cccc(F)c2)n(C)c1=O | . | . | -29 | 102
O=S(=O)(c1ccc(Cl)cc1)n1ccc(-c2ccc(Br)s2)n1 | 101 | 96 | 5 | 102
Cc1cccc(C)c1NC(=O)C(NC(=O)c1ccc(-n2cnnn2)cc1)c1ccccc1 (configuration not stated) | 86 | 82 | -16 | .
CCOc1ccc2c(c1)c(=O)c(C(=O)c1ccccc1)cn2Cc1ccccc1 | 103 | 88 | -8 | 94
Cc1ccc(Cl)cc1N1CCN(C(=O)c2c(C)oc3ncnc(N4CCOCC4)c23)CC1 | 92 | 86 | . | 102
COC(=O)c1cc(C(=O)OC)c(C)nc1C | 84 | 85 | -11 | 111
N/C(=N/S(=O)(=O)c1ccccc1)N1CCCCC1 | 94 | 93 | -15 | 104
O=C(NCCC1=CCCCC1)c1ccc2c(c1)N(Cc1ccc(Cl)cc1)C(=O)c1ccccc1S2=O (configuration not stated) | 107 | 99 | -29 | 101
COc1cccc(-n2nnc3c(=O)n(CC(=O)c4ccc(Cl)cc4)cnc32)c1 | 96 | 82 | . | 99
CCCCn1c(N)nc2ccccc21 | 99 | 91 | . | 104
OCC1NCC(O)C(O)C1O (configuration not stated) | . | . | -32 | 103
COCCNC(=O)c1c[nH]n2c(=O)c(Cc3ccc(Cl)cc3)c(C)nc12 | 79 | 80 | 12 | 105
COC(=O)CC1Oc2ccccc2-n2cc(-c3ccc(F)cc3)nc21 (configuration not stated) | 108 | 80 | 2 | 102
CC1CCCN(C(=O)c2cccc(Cl)c2)C1 (configuration not stated) | 97 | 97 | -13 | 98
Cc1c(-c2nc(-c3ccncc3)no2)oc2ccc(S(=O)(=O)N3CCOCC3)cc12 | . | . | 16 | 112
COc1ccc(C(=O)CNc2ccccc2Br)cc1 | 115 | 93 | -16 | .
O=C(O)C1CC2C=CC1O2 (configuration not stated) | 142 | 83 | 0 | 98
O=C(COC(=O)c1ccccc1F)Nc1ccccc1 | 111 | 90 | -10 | .
CC(NC(=O)NCc1ccccc1)c1ccccc1 (configuration not stated) | 89 | 92 | 10 | 106

Laid out differently: results already given.
mol,Sa growth 42C,Sa growth 42C second temp,HCMV UL50-53 inh,GIV-Gai inh
Cc1cccc(C)c1NC(=O)C(NC(=O)c1ccc(-n2cnnn2)cc1)c1ccccc1 (configuration not stated),86,82,-16,.
CCOc1ccc2c(c1)c(=O)c(C(=O)c1ccccc1)cn2Cc1ccccc1,103,88,-8,94
Cc1ccc(Cl)cc1N1CCN(C(=O)c2c(C)oc3ncnc(N4CCOCC4)c23)CC1,92,86,.,102
COC(=O)c1cc(C(=O)OC)c(C)nc1C,84,85,-11,111
N/C(=N/S(=O)(=O)c1ccccc1)N1CCCCC1,94,93,-15,104
O=C(NCCC1=CCCCC1)c1ccc2c(c1)N(Cc1ccc(Cl)cc1)C(=O)c1ccccc1S2=O (configuration not stated),107,99,-29,101
COc1cccc(-n2nnc3c(=O)n(CC(=O)c4ccc(Cl)cc4)cnc32)c1,96,82,.,99
CCCCn1c(N)nc2ccccc21,99,91,.,104
OCC1NCC(O)C(O)C1O (configuration not stated),.,.,-32,103
COCCNC(=O)c1c[nH]n2c(=O)c(Cc3ccc(Cl)cc3)c(C)nc12,79,80,12,105
COC(=O)CC1Oc2ccccc2-n2cc(-c3ccc(F)cc3)nc21 (configuration not stated),108,80,2,102
CC1CCCN(C(=O)c2cccc(Cl)c2)C1 (configuration not stated),97,97,-13,98
Cc1c(-c2nc(-c3ccncc3)no2)oc2ccc(S(=O)(=O)N3CCOCC3)cc12,.,.,16,112
COc1ccc(C(=O)CNc2ccccc2Br)cc1,115,93,-16,.
O=C(O)C1CC2C=CC1O2 (configuration not stated),142,83,0,98
O=C(COC(=O)c1ccccc1F)Nc1ccccc1,111,90,-10,.

3 entries from above, sorted by the value under GIV-Gai inh, falling:
Compound | GIV-Gai inh
CC(NC(=O)NCc1ccccc1)c1ccccc1 (configuration not stated) | 106
COCCNC(=O)c1c[nH]n2c(=O)c(Cc3ccc(Cl)cc3)c(C)nc12 | 105
CC1CCCN(C(=O)c2cccc(Cl)c2)C1 (configuration not stated) | 98

Next compounds
SMILES | Sa growth 42C | Sa growth 42C second temp | HCMV UL50-53 inh | GIV-Gai inh
CN1CCN(C(=O)Nc2ccc(Cc3ccc(NC(=O)N4CCN(C)CC4)cc3)cc2)CC1 | 82 | 123 | -8 | 100
COc1cccc(C(=O)/C=c2\[nH]c(=O)/c(=C\c3cccs3)s2)c1 | 84 | 70 | -53 | 226
Cc1ccc(N2CC(=O)N(/N=C/c3ccncc3)CC2=O)cc1 | 98 | 89 | -30 | 103
CCC(CC)C(=O)OCc1csc(Nc2ccccc2)n1 | 78 | 91 | -34 | .
CCOC(=O)c1c(N)n(-c2cc(C)cc(C)c2)c2nc3ccccc3nc12 | 106 | 92 | -31 | 112
CCOC(=O)c1cc(S(=O)(=O)N2CCN(c3ccccc3)CC2)[nH]n1 | 91 | 96 | . | 104
COc1cc(Nc2ncc3c(n2)CCN(S(=O)(=O)c2ccc(C)cc2)C3)cc(OC)c1 | . | . | -12 | 109
CCCc1nnc(SCC(=O)N2CCCCC2C)n1CC (configuration not stated) | 95 | 82 | 13 | 105
Cc1c(OC(=O)c2ccco2)ccc2c(=O)c(-c3nc4ccccc4s3)coc12 | 101 | 95 | -8 | 105
Cc1cccc(C)c1Nc1c(-c2ccc(O)cc2)nc2sccn12 | 70 | 54 | 3 | 104
Cc1ccc(N(C(=O)c2ccc(S(=O)(=O)N3CCOCC3)cc2)C2C=CS(=O)(=O)C2)cc1 (configuration not stated) | . | . | -11 | 97
O=C(CN1C(=O)/C(=C/c2ccccc2Cl)SC1=S)Nc1ccccc1C(F)(F)F | 99 | 86 | . | 97
CCCCN(Cc1cc2cccc(C)c2[nH]c1=O)S(=O)(=O)c1ccccc1 | 97 | 83 | . | 102

Bioassay records: PubChem, ICCB-Longwood Screening Facility, Harvard Medical School
